# FGF22 binding – binders of human FGF22 protein, primary screen, FGF22 synaptogenesis inhibitor project, biophysical, thermal shift, single point. Fibroblast growth factor 22 (Homo sapiens), Q9HCT0. recombinant FGF22 thermal shift, SYPRO orange fluorescence; percent of sucrose octasulfate shift, DMSO zero. calls only at 9.99 µM. 1.5% of 340,000 active;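 active means melting point raised past a set limit in the mean and every replicate; three in four hits are not shown here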
# B2AR ag – beta2AR agonists driving receptor internalization, primary screen, cell-based, FAP fluorogen, flow cytometry; Am2.2-beta2AR cells; reference of the scale not given here; AID 504454, 2011; Beta-2 adrenergic receptor (Homo sapiens), P07550; 0.43% of 340,000 active; response, % (test concentration not listed);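 active means response above a set limit, near 3 SD of response in nonfluorescent compounds, cut at about 42% in these data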;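 further: stock transfer was 100 nL into about 11 µL; a reference agonist was the positive control; negative values mostly stem from fluorescent compounds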
# Target sequence (P07550 whole entry, looked up): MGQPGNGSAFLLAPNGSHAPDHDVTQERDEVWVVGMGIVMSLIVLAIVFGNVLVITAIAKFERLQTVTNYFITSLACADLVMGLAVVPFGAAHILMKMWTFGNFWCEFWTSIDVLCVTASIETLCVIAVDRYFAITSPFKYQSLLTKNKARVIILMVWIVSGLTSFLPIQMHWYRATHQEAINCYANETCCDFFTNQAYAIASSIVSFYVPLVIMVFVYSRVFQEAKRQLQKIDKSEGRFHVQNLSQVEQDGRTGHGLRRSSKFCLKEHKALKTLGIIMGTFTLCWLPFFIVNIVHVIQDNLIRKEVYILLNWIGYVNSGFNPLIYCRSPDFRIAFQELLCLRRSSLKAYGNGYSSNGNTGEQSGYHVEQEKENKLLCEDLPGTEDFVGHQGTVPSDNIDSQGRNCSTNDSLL
# Ecoli rRNA inh – reduced GFP signal of wild-type E. coli, primary screen, bacterial rRNA inhibitor project, GFP/RFP fluorescence, OD600, single point; E. coli WT GFP vs humanized-ribosome RFP mutants, 24 h; active compounds read low; DMSO median 0, no signal -100; GFP signal change (wild-type ribosome), % (concentration not given with the values); 1.6% of 350,000 active;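 active means significant combined selectivity score with lowered wild-type GFP, culture density cut under 30%, mutant RFP and density less affected; inactive means any of these conditions unmet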; further: one replicate is shown; some compounds called inactive have numbers as strong as hits
# UCH37 inh – inhibitors of human UCH37 deubiquitinase, primary screen, biochemical, Ub-AMC cleavage, fluorescence. 0.33% of 330,000 active. purified proteasome/UCH37. inhibition, % (no concentration beside the values). Ubiquitin carboxyl-terminal hydrolase isozyme L5 (Homo sapiens), Q9Y5K5;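 active means mean of two replicates above 20%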;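 further: 0% = compound-free wells with enzyme and 100% = wells lacking proteasome; stock transfer was 100 nL into about 20 µL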
#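 Material: human UCH37 enzyme supplied as purified proteasome complex / Amount: 0.15 nM proteasome as dispensed / Buffer or medium: pH 7.4 Tris-HCl (50 mM) with ovalbumin, ATP-MgCl2, DTT / Times: preincubation 30 min, reaction 25 min, room temperature / Technique: AMC fluorescence from Ub-AMC cleavage, excitation 355 nm, emission 460 nm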
# Ecoli growth – E. coli growth inhibition, primary screen, OD600 | Escherichia coli growth, 23 h; active compounds read low | OD600 absorbance (test concentration not listed) | 0.21% of 330,000 active | AID 1053175, 2014;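 active means OD600 absorbance below the run mean of sample wells minus 3.6 SD, in any replicate, cut at about 0.56 in these data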;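 further: stock transfer was 300 nL into about 60 µL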
# ALR inh – inhibitors of human ALR sulfhydryl oxidase, primary screen, biochemical, H2O2 detection, HRP-luminol luminescence, single point. FAD-linked sulfhydryl oxidase ALR (Homo sapiens), P55789. purified ALR, DTT oxidation. inhibition, % (test concentration not listed). 3.8% of 290,000 active. AID 485317, 2010;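 active means mean and each replicate at 75% or more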;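 further: stock transfer was 7.5 nL into about 7.5 µL; 0% = neutral wells and 100% = wells with inactivated enzyme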
# Target sequence (P55789 whole entry, looked up): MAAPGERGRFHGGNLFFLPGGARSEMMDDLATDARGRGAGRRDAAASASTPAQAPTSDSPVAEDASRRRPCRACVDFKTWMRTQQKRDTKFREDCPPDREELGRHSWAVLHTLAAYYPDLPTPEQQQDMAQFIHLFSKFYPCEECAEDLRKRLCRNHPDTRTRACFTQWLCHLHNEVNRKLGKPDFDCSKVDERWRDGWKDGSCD
# HNF4A DNA FP – change in binding of human HNF4A to DNA, primary screen, biochemical, fluorescence polarization, FITC-DNA; 1 h; activity change, % at 10 µM; 0.3% of 360,000 active; AID 1224865, 2016; in the data active means activity change above about 30%, passing the limit was not always enough;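 further: controls were the assay level and a saturating level of protein; the project sought stronger binding though the title names inhibitors; some compounds called inactive have numbers as strong as hits; positive values seem to mean higher polarization but the record does not say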
# Target sequence (P41235 whole entry, looked up): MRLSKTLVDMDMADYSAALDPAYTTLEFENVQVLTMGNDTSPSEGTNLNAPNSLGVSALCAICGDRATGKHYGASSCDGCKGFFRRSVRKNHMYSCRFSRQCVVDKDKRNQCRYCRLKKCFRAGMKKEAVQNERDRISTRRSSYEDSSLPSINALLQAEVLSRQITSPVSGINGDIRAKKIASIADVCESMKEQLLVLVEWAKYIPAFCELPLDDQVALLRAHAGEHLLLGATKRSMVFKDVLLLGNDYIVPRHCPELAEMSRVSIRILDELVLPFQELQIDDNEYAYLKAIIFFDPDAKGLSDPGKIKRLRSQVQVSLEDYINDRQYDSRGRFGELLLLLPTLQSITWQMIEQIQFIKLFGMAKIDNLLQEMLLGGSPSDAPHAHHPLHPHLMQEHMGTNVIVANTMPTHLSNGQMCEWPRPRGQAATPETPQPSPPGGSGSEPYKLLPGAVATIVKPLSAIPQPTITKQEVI
# Ecoli rRNA inh OD600 – recorded beside Ecoli rRNA inh, whose call it bears; OD600 change, %; measured here: OD600 growth;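 optical density of the mix in the first replicate; 0 = DMSO median and -100 = no signal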
# Ecoli rRNA inh RFP – also measured in Ecoli rRNA inh; calls as there; RFP signal change, %; measured here: RFP humanized mutant strains;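 first replicate; 0 = DMSO median and -100 = no signal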
# Starred values were filed as active, the others as inactive; i = inactive; / = not tested or not shown. Some of the compounds tested (hit frequency here may not be typical).
SMILES,FGF22 binding,B2AR ag,Ecoli rRNA inh,Ecoli rRNA inh OD600,Ecoli rRNA inh RFP,UCH37 inh,Ecoli growth,ALR inh,HNF4A DNA FP
CCOC(=O)c1c(NC(=O)Cn2nc(C(=O)O)c3ccccc3c2=O)sc2c1CCC(C)C2 (configuration not stated),i,11,-3,1,-2.5,4.3,0.65,-11,4.5
Cc1ccc(C)c(NC(=O)C2CCCN2/C=C/C(=O)C(F)(F)F)c1 (configuration not stated),/,-7,/,/,/,8.1,0.68,-25,0.7
O=C(NNS(=O)(=O)c1ccccc1Cl)c1nn(-c2ccc(F)cc2)ccc1=O,i,-1,3,1,-2.8,5.9,0.66,18,-8.2
CCC(C)NS(=O)(=O)c1ccc(OCC(=O)N2CCC(C)CC2)cc1 (configuration not stated),i,1,-8,-13,-2.9,-1.3,0.66,/,0.2
COc1ccc(Cl)cc1N1CC(c2nc3ccccc3[nH]2)CC1=O (configuration not stated),i,-6,2,-1,-1.9,6.5,0.71,/,1.3
Cc1ccc(S(=O)(=O)N2CCC(C(=O)OC(C)C(=O)N(C)c3ccccc3)CC2)cc1C (configuration not stated),i,2,-7,-19,0.9,4.9,0.72,-2,3.0
OCCN(CCO)c1ccc(C(c2ccc(Cl)cc2)c2ccc(N(CCO)CCO)cc2Cl)c(Cl)c1,/,21,10,12,27,1.8,0.71,-4,1.0
CCN(CC)CCCN(C(=O)Cn1nnc(-c2ccc(OC)c(OC)c2)n1)C(C(=O)NC(C)(C)C)c1ccc(F)cc1 (configuration not stated),i,-1,6,-9,-1.7,1.9,0.69,-5,-0.8
C=C(C)C(=O)Nc1ccc(OC(F)(F)C(F)F)c(NC(=O)C(=C)C)c1,/,-14,/,/,/,0.2,0.67,-13,-14
Cc1cc(C)c(NC(=O)COC(=O)C2CCCCC2)c(C)c1,i,-12,1,1,-1.8,2.4,0.71,/,0.5
COC(C(=O)Nc1ccnn1C1CCN(C(=O)c2ccc(C=O)cc2)CC1)c1ccccc1 (configuration not stated),i,4,2,5,0.4,0.4,0.57,5,-0.4
Cc1cc(C)c(C(N)=O)c(Nc2ccc3c(c2)OCCO3)n1,/,-9,/,/,/,3.8,0.68,55,3.6

# Look-ups from the results shown:
# Entry of Cc1ccc(S(=O)(=O)N2CCC(C(=O)OC(C)C(=O)N(C)c3ccccc3)CC2)cc1C (configuration not stated) in HNF4A DNA FP: 3.0
# Entry of OCCN(CCO)c1ccc(C(c2ccc(Cl)cc2)c2ccc(N(CCO)CCO)cc2Cl)c(Cl)c1 in UCH37 inh: 1.8

# Later entries
SMILES,FGF22 binding,B2AR ag,Ecoli rRNA inh,Ecoli rRNA inh OD600,Ecoli rRNA inh RFP,UCH37 inh,Ecoli growth,ALR inh,HNF4A DNA FP
CC(=O)N1CCN(S(=O)(=O)c2ccc(S(=O)(=O)NC3CCCCC3)cc2)CC1,i,2,6,8,2.4,3.9,0.66,1,0.0
Cc1c(S(=O)(=O)N2CCN(C(c3ccccc3)c3ccccc3)CC2)c(=O)n(C)c(=O)n1C,i,-14,4,-19,-14,6.6,0.73,/,5.4
COC1C=CC(CNC(=O)c2cc3c(=O)n4cccc(C)c4nc3n2C)(OC)O1 (configuration not stated),i,0,4,7,1.4,-382,0.69,3,-2.1
Cc1ccc(C(CNC(=O)Nc2cccc(C)c2)N2CCN(C)CC2)cc1 (configuration not stated),i,-1,0,5,0.5,4.7,0.7,-24,-1.6
CC(C)CC(=O)NNC(=S)Nc1ccc(S(N)(=O)=O)cc1,i,2,-2,7,-4.0,2.7,0.68,69,7.5
Cn1nccc1-c1cc(Cl)cc(Cl)c1O,i,-3,-48,-77,-19,0.7,0.65,10,-5.6
O=C(O)C(Cc1ccnc2ccccc12)=NO,i,14,25,8,6.3,4.6,0.72,/,0.7
Cc1nc2cc(S(=O)(=O)N(C)C)ccc2n1-c1ccccc1,/,12,/,/,/,4.9,0.68,-1,-4.1
CC(=O)c1cccc(OC(=O)c2cc(S(=O)(=O)N3CCOCC3)ccc2N2CCCC2)c1,i,8,-1,-4,0.1,4.8,0.71,-6,-0.4
O=C(Cc1ccccc1)N/N=C/c1cccnc1,i,1,0,11,9.1,/,/,/,-1.3
CCOc1ccc(C(=O)Nc2ccc(S(=O)(=O)N3C[C@@H]4C[C@@H](C3)c3cccc(=O)n3C4)cc2)cc1,i,0,-8,-10,3.7,1.3,0.66,7,-3.5
COc1ccccc1-n1c(N)c(C(=O)NCC2CCCO2)c2nc3ccccc3nc21 (configuration not stated),/,2,/,/,/,i,0.7,14,3.1

# Sorted by count of non-hydrogen atoms (lowest first): some entries from above.
SMILES,FGF22 binding,B2AR ag,Ecoli rRNA inh,Ecoli rRNA inh OD600,Ecoli rRNA inh RFP,UCH37 inh,Ecoli growth,ALR inh,HNF4A DNA FP
Cn1nccc1-c1cc(Cl)cc(Cl)c1O,i,-3,-48,-77,-19,0.7,0.65,10,-5.6
O=C(Cc1ccccc1)N/N=C/c1cccnc1,i,1,0,11,9.1,/,/,/,-1.3
CC(C)CC(=O)NNC(=S)Nc1ccc(S(N)(=O)=O)cc1,i,2,-2,7,-4.0,2.7,0.68,69,7.5
Cc1cc(C)c(C(N)=O)c(Nc2ccc3c(c2)OCCO3)n1,/,-9,/,/,/,3.8,0.68,55,3.6
COc1ccc(Cl)cc1N1CC(c2nc3ccccc3[nH]2)CC1=O (configuration not stated),i,-6,2,-1,-1.9,6.5,0.71,/,1.3
CCC(C)NS(=O)(=O)c1ccc(OCC(=O)N2CCC(C)CC2)cc1 (configuration not stated),i,1,-8,-13,-2.9,-1.3,0.66,/,0.2
Cc1ccc(C(CNC(=O)Nc2cccc(C)c2)N2CCN(C)CC2)cc1 (configuration not stated),i,-1,0,5,0.5,4.7,0.7,-24,-1.6
CC(=O)N1CCN(S(=O)(=O)c2ccc(S(=O)(=O)NC3CCCCC3)cc2)CC1,i,2,6,8,2.4,3.9,0.66,1,0.0
COC1C=CC(CNC(=O)c2cc3c(=O)n4cccc(C)c4nc3n2C)(OC)O1 (configuration not stated),i,0,4,7,1.4,-382,0.69,3,-2.1
COc1ccccc1-n1c(N)c(C(=O)NCC2CCCO2)c2nc3ccccc3nc21 (configuration not stated),/,2,/,/,/,i,0.7,14,3.1
CC(=O)c1cccc(OC(=O)c2cc(S(=O)(=O)N3CCOCC3)ccc2N2CCCC2)c1,i,8,-1,-4,0.1,4.8,0.71,-6,-0.4
CCOC(=O)c1c(NC(=O)Cn2nc(C(=O)O)c3ccccc3c2=O)sc2c1CCC(C)C2 (configuration not stated),i,11,-3,1,-2.5,4.3,0.65,-11,4.5
CCOc1ccc(C(=O)Nc2ccc(S(=O)(=O)N3C[C@@H]4C[C@@H](C3)c3cccc(=O)n3C4)cc2)cc1,i,0,-8,-10,3.7,1.3,0.66,7,-3.5

# The list goes on.
SMILES,FGF22 binding,B2AR ag,Ecoli rRNA inh,Ecoli rRNA inh OD600,Ecoli rRNA inh RFP,UCH37 inh,Ecoli growth,ALR inh,HNF4A DNA FP
Cc1ccc(-c2cc(C(=O)OCC(=O)N(C)c3c(N)n(Cc4ccccc4)c(=O)[nH]c3=O)c3ccccc3n2)o1,i,3,4,9,1.8,-249,0.68,-1,4.8
CCOc1cc(CNn2nnnc2N)ccc1OCC(=O)NC(C)(C)C,/,-8,14,13,3.7,1.7,0.65,-1,5.8
O=C(/C=C/c1cccs1)Nc1nc(-c2ccccc2)cs1,/,-5,/,/,/,-12,0.74,-7,-3.8
Cc1ccc(S(=O)(=O)N2CCCCC2C(=O)N2CCN(C)CC2)cc1 (configuration not stated),/,34,/,/,/,5.5,0.75,-6,-0.9
CN(C)CCCNC(=O)C[C@H]1C[C@H](C(=O)N2CCOCC2)[C@@]2(C)c3[nH]c4ccc(Cl)cc4c3CCN2C1=O,i,-2,11,9,0.7,0.3,0.71,/,0.5
Cc1ccc(NC(=O)C2CCCN(S(=O)(=O)c3c(C)noc3/C=C/N(C)C)C2)cc1F (configuration not stated),i,6,16,9,4.8,6.9,0.72,/,1.4
CCOc1ccc(-c2cc(CCCC(=O)NCCc3ccccc3)no2)cc1,/,-13,/,/,/,5.9,0.67,-1,0.5
CN1CCN(c2nc3c(c(=O)n(C)c(=O)n3C)n2CCSc2nnnn2-c2ccccc2)CC1,i,7,7,4,2.3,-3.0,0.65,15,1.2
O=C(c1ccc(Cl)c(Cl)c1)N1CCC(O)(CN2CCOCC2)CC1,i,4,8,1,-1.8,-1.8,0.68,-4,2.6
CCC(=Nc1ccccc1)C1=C(O)CCCC1=O,i,-1,22,7,7.6,5.1,0.67,-4,-4.3
CCCCOCCCNC(=O)C1c2ccccc2Oc2ccccc21,i,16,5,8,-0.2,1.9,0.67,4,4.4
Cc1ccc2nc(NC(=O)C3CCCN(S(=O)(=O)c4cccnc4)C3)sc2c1 (configuration not stated),i,2,4,-11,7.3,4.8,0.72,0,3.9
CN(C)/C=C/C(=O)c1ccc(Oc2ncccn2)cc1,/,1,11,11,1.3,18,0.63,-5,7.7
CC(=O)NNc1nc2ccccc2s1,/,5,/,/,/,2.6,0.68,43,-0.2
CC(=O)NC(CC(=O)Nc1ccc2c(c1)OCCO2)c1ccccc1 (configuration not stated),i,-3,2,12,-1.0,1.4,0.7,-3,2.5
CCC1CCCCN1CCCNC(=O)c1ccc2c(c1)N(Cc1c(F)cccc1Cl)C(=O)CS2 (configuration not stated),i,23,-3,1,0.0,2.5,0.68,0,1.8
CCC(=O)c1ccc(OC(=O)c2cnccn2)cc1,/,3,12,12,3.1,8.3,0.65,58,1.4
N/C(=N\OC(=O)N1CCOCC1)c1ccc(Cl)cc1,/,1,/,/,/,0.5,0.61,-7,-0.5
COc1ccc(NC(=O)c2cc(-c3ccccc3Cl)on2)cc1,i,7,3,0,1.9,-0.2,0.67,-12,0.7
CC(C)C(=O)NNC(=O)CSc1nc(C2CCCCC2)nc2ccccc12,/,-28,/,/,/,3.2,0.72,2,-2.8
CCCCNc1cc(=O)oc2ccccc12,/,1,/,/,/,4.1,0.63,-11,5.0
O=C(CN1CCN(Cc2ccccc2)CC1)Nc1ccc(Br)cc1,i,-1,2,3,-1.5,1.6,0.61,-6,-1.7
CN1C2=CC=CC=CC2=[N+](C)C12C=CC(=[N+]([O-])[O-])C=C2[N+](=O)[O-] (configuration not stated),i,10,-11,-4,-0.1,18,0.71,/,-1.9
CC(Sc1nc(N2CCOCC2)c2c(c1C#N)CC(C)(C)OC2)C(=O)O (configuration not stated),i,1,2,-1,1.1,1.7,0.62,24,5.0
COc1ccc(C2(c3ccc(OC)cc3)NC(=O)N(CC(=O)Nc3cc(C)ccc3OC)C2=O)cc1,i,7,1,2,-2.2,4.5,0.7,-6,5.1
O=[N+]([O-])c1cccc(-n2cccc2/C=N/Nc2nc(N3CCCCC3)nc(N3CCCCC3)n2)c1,i,-6,6,7,3.6,/,/,-1,1.9
CC(Sc1nnnn1C)C(=O)NC(=O)NC1CCCCC1 (configuration not stated),i,5,7,5,-3.1,-0.8,0.68,-13,-2.5
Cn1c(C(=O)NN)cc2cc(OCc3ccccc3)ccc21,i,5,/,/,/,2.4,0.64,-6,4.4

# Compound activity: PubChem, several laboratories
